Screening data as filed in PubChem.
Autofluor counter – flagged as autofluorescent in microsphere protease counterscreen; fluorescence intensity (no concentration beside the values); compound autofluorescence counterscreen, microsphere flow cytometry; active compounds read high; 360,000 compounds, 3.1% hits;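 active means at least 3 SD above the mean of all compounds, about 16000 in these data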;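 further: 100 nL of 1 mM stock went into each well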
RN4220 kill – growth inhibition of S. aureus RN4220, primary screen, OD600. 330,000 compounds, 0.33% hits. inhibition, % (no concentration beside the values). AID 1259311, 2017. 16 h;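 active means z-score of -3 or lower and OD600 up to 0.18 on both plates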;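 further: plate controls were untreated cells for no effect and reference antibiotic for full effect; stock transfer was 100 nL into about 80 µL; one replicate is shown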
BJeLR viability – MLPCN primary cell-based screen for lethality selective to Ras in HRASV12 cells | inhibition, % (test concentration not listed) | BJeLR (HRASV12) viability, CellTiter-Glo ATP luminescence, 48 h; reference of the scale not given here | 300,000 compounds, 0.17% hits;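 active means replicate mean above 50%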;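 further: 50 nL library stock added to about 25 µL; numbers are from one replicate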
ugtP null kill – growth inhibition of ugtP-null S. aureus, primary screen, RN4220 ugtP deletion, OD600; 16 h; some inactives read as strong as hits; growth inhibition, % (concentration not given with the values); 330,000 compounds, 0.54% hits;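 active means z-score under -3 and OD600 up to 0.15 on both plates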;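 further: plate controls were untreated wells for no effect and antibiotic for full effect; wells of about 80 µL received 100 nL stock; the first replicate is given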
Mtb hypoxia inh – PubChem AID 1159583; M. tuberculosis hypoxia-regulated fluorescent reporter, fluorescence; fluorescence inhibition, % (concentration not given with the values); 300,000 compounds, 0.1% hits;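 active means 35 to 45% if threefold the growth effect, above 45% if 1.5-fold the growth effect; inactive means the rest, general growth blockers included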;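 further: wells of about 50 µL received 100 nL stock; 0% = vehicle wells and 100% = reference inhibitor wells; whole bacteria with a GFP reporter of the hypoxia response; strong numbers were not always called active; many hits fall short of the cut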
PrP 5UTR inh – inhibition of PrP 5' UTR reporter expression | inhibition, % (no concentration beside the values) | cell-based PrP 5' UTR mRNA reporter, plate reader | 340,000 compounds, 0.35% hits;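 active means every replicate at 50% or more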;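 further: 0 = median of the neutral control wells; tested in H4 reporter cells; numbers are from one replicate; inactives centre near -14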
Mtb hypoxia inh growth – recorded beside Mtb hypoxia inh, whose call it bears; growth inhibition, %; measured here: M. tuberculosis growth (absorbance);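 0% = vehicle and 100% = reference antibiotic; read after six days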
Numbers without * were called inactive; & = joins results of further samples. An unsorted share of the library; about 4.1% have a hit in one of these screens.

Preview, two compounds:
Screening CNC(=S)N1CCC(Cc2ccccc2)CC1 returned Autofluor counter 6379, RN4220 kill -0.8, BJeLR viability -4.8, ugtP null kill -1.6, Mtb hypoxia inh 14.6, PrP 5UTR inh -25.7 and Mtb hypoxia inh growth 6.9.
For Cc1ccc(S(=O)(=O)N(CC(=O)NCc2ccco2)Cc2ccc(F)cc2)cc1 the results were Autofluor counter 2748, RN4220 kill -13.8, BJeLR viability 11.1, ugtP null kill 4.6, Mtb hypoxia inh 18.5, PrP 5UTR inh -16.8 and Mtb hypoxia inh growth 10.4.

The list itself (from the top)
Screening CNC(=S)N1CCC(Cc2ccccc2)CC1 returned Autofluor counter 6379, RN4220 kill -0.8, BJeLR viability -4.8, ugtP null kill -1.6, Mtb hypoxia inh 14.6, PrP 5UTR inh -25.7 and Mtb hypoxia inh growth 6.9.
For Cc1ccc(S(=O)(=O)N(CC(=O)NCc2ccco2)Cc2ccc(F)cc2)cc1 the results were Autofluor counter 2748, RN4220 kill -13.8, BJeLR viability 11.1, ugtP null kill 4.6, Mtb hypoxia inh 18.5, PrP 5UTR inh -16.8 and Mtb hypoxia inh growth 10.4.
For CC(C)CC(=O)N/C(N)=N/c1nc2ccccc2s1 the results were Autofluor counter 2033, RN4220 kill -2.9, BJeLR viability -3.0, ugtP null kill -14.9 and PrP 5UTR inh -28.1.
Screening CC(C)(C)Cc1nnc(NS(=O)(=O)c2ccc([N+](=O)[O-])cc2)s1 returned Autofluor counter 3731, RN4220 kill 9.4, BJeLR viability 2.4, ugtP null kill 12.9, Mtb hypoxia inh -5.4, PrP 5UTR inh -4.6 and Mtb hypoxia inh growth -10.6.
For CCOc1ccc(Nc2nc3ccccc3n3cnnc23)cc1 the results were Autofluor counter 4037, RN4220 kill 3.7, BJeLR viability 6.2, ugtP null kill 17.3, Mtb hypoxia inh 1.0, PrP 5UTR inh 28.8 and Mtb hypoxia inh growth 6.6.
For CC(C)NCC(O)c1ccc2ccccc2c1 (stereo not given) the results were Autofluor counter 5853, RN4220 kill 3.2, ugtP null kill -0.1, Mtb hypoxia inh 7.7, PrP 5UTR inh -8.5 and Mtb hypoxia inh growth -2.9.
For CCN(Cc1nc2ccccc2c(=O)[nH]1)Cc1nc2ccsc2c(=O)[nH]1 the results were Autofluor counter 3687, RN4220 kill 4.4, BJeLR viability -0.3, ugtP null kill 0.8, Mtb hypoxia inh 4.8, PrP 5UTR inh -20.8 and Mtb hypoxia inh growth 2.9.
For CCCNC(=O)/C=C/c1ccc(C(C)C)cc1 the results were Autofluor counter 10122, RN4220 kill 3.7, BJeLR viability 2.4, ugtP null kill 0.9, Mtb hypoxia inh 0.3, PrP 5UTR inh -11.3 and Mtb hypoxia inh growth 10.6.
`Nc1nc(NCc2ccco2)nc(NC2CCCCC2)c1[N+](=O)[O-]` gave Autofluor counter 5635, RN4220 kill -3.7, BJeLR viability -8.5, ugtP null kill 1.6, Mtb hypoxia inh -1.9 and Mtb hypoxia inh growth -13.4.
Screening S=C1N(c2ccccc2)CN(C2CCCCC2)CN1c1ccccc1 returned Autofluor counter 3986, RN4220 kill 5.9, BJeLR viability 0.8, ugtP null kill -6.7, Mtb hypoxia inh 14.3, PrP 5UTR inh -22.5 and Mtb hypoxia inh growth 7.6.
Screening CC(=O)N1c2ccc(S(=O)(=O)N3CCCC3)cc2CC1C(=O)NCc1ccc(N(C)C)cc1 (stereo not given) returned Autofluor counter 4168, RN4220 kill 4.3, BJeLR viability 17.0, ugtP null kill 13.5, Mtb hypoxia inh 5.4, PrP 5UTR inh 6.9 and Mtb hypoxia inh growth -3.6.
Screening c1ccc(-c2n[nH]c(-c3ccccn3)n2)nc1 returned Autofluor counter 7944, RN4220 kill 2.4, BJeLR viability -2.7&-1.3, ugtP null kill 5.9, Mtb hypoxia inh 19.0, PrP 5UTR inh -65.1 and Mtb hypoxia inh growth 12.1.
For CC(C)CNC(=O)C1Nc2ccc(OC(F)(F)F)cc2C2C=CCC12 (stereo not given) the results were Autofluor counter 3402, RN4220 kill 5.4, BJeLR viability 6.5, ugtP null kill -8.6, Mtb hypoxia inh 1.2, PrP 5UTR inh -13.7 and Mtb hypoxia inh growth 4.5.
`CN(C)c1ccc(/C=C/C(=O)c2cc(Cl)ccc2O)cc1` gave Autofluor counter 4495, RN4220 kill -13.8, BJeLR viability -2.4, ugtP null kill 1.8, Mtb hypoxia inh 6.1, PrP 5UTR inh -41.9 and Mtb hypoxia inh growth -5.3.
`CC(C)CN1CCN(Cc2cccc3c2OCO3)CC1CCO` (stereo not given) gave Autofluor counter 3763, RN4220 kill 3.5, BJeLR viability 24.4, ugtP null kill 2.8, Mtb hypoxia inh -6.2, PrP 5UTR inh -42.9 and Mtb hypoxia inh growth -15.1.
For CCCOC(=O)c1cc2ccccc2oc1=O the results were Autofluor counter 5459, RN4220 kill 5.7, BJeLR viability -1.7, ugtP null kill 5.6, Mtb hypoxia inh 5.3, PrP 5UTR inh -19.0 and Mtb hypoxia inh growth 5.5.
For Cc1c(N2C(=O)CSC2=NN=Cc2ccccc2O)c(=O)n(-c2ccccc2)n1C the results were RN4220 kill 6.1, ugtP null kill 7.6, Mtb hypoxia inh 8.4 and Mtb hypoxia inh growth 1.0.
For c1ccc2c(-c3ccncc3)c[nH]c2c1 the results were Autofluor counter 2951, RN4220 kill 4.5, BJeLR viability 3.8, ugtP null kill -9.8 and PrP 5UTR inh -33.6.
Screening COc1ccc(-c2cc(C)no2)cc1S(=O)(=O)NCCc1ccco1 returned Autofluor counter 4459, RN4220 kill 5.6, BJeLR viability -6.4, ugtP null kill 3.4, Mtb hypoxia inh 11.6, PrP 5UTR inh -8.4 and Mtb hypoxia inh growth 2.9.
CCc1ccccc1NC(=O)NC1CCCCCCC1 was read as Autofluor counter 5337, RN4220 kill 2.3, ugtP null kill 3.9, Mtb hypoxia inh 12.0, PrP 5UTR inh -10.3 and Mtb hypoxia inh growth 15.7.
`Cc1ccc(-c2cnco2)cc1` gave Autofluor counter 4486, RN4220 kill 3.3, BJeLR viability -3.1, ugtP null kill 10.6, Mtb hypoxia inh -5.1, PrP 5UTR inh -17.7 and Mtb hypoxia inh growth 1.6.
For Cc1ccc(CNC(=O)C2CCCN2C(=O)Nc2ccc(F)cc2)cc1 (stereo not given) the results were Autofluor counter 3200, RN4220 kill -1.3, BJeLR viability 0.9, ugtP null kill 8.3, Mtb hypoxia inh -6.1, PrP 5UTR inh -3.9 and Mtb hypoxia inh growth -0.5.
For CCOC(=O)c1c(NC(=O)CCS(=O)(=O)c2ccccc2)sc2c1CCN(C(C)C)C2 the results were Autofluor counter 6018, RN4220 kill 4.1, BJeLR viability 4.3, ugtP null kill 3.5, Mtb hypoxia inh 2.7, PrP 5UTR inh -8.6 and Mtb hypoxia inh growth 4.9.
Cc1ccc(C=NNC(=O)C(O)c2ccccc2)o1 (stereo not given) was read as RN4220 kill -4.3, ugtP null kill -0.1, Mtb hypoxia inh -2.9 and Mtb hypoxia inh growth 16.4.
`COc1cccc(CNc2nc(SC)ncc2CO)c1` gave Autofluor counter 2644, RN4220 kill 3.3, BJeLR viability 2.0, ugtP null kill -1.3, Mtb hypoxia inh 6.2, PrP 5UTR inh -5.5 and Mtb hypoxia inh growth -1.2.
Screening COc1cccc(-n2c(SCc3c(C)noc3C)nnc2-c2cccc(S(=O)(=O)N(C)C)c2)c1 returned Autofluor counter 4710, RN4220 kill 5.7, BJeLR viability -1.6, ugtP null kill 1.1 and PrP 5UTR inh -10.9.
For O=C1CN(C(=O)CSc2nc3ccccc3c(=O)n2CC2CCCO2)c2ccccc2N1 (stereo not given) the results were Autofluor counter 3268, RN4220 kill 5.3, BJeLR viability 0.1, ugtP null kill 5.6, Mtb hypoxia inh 11.1, PrP 5UTR inh -16.7 and Mtb hypoxia inh growth 7.7.
`CC(C)(C)c1ccc(C=NNC(=O)CN2CCS(=O)(=O)CC2)cc1` gave RN4220 kill -0.1, ugtP null kill -2.2, Mtb hypoxia inh 0.4 and Mtb hypoxia inh growth 7.3.
`Cc1ccc(C(=O)OCC(=O)N2CC(C)CC(C)C2)cc1S(=O)(=O)N1CCOCC1` (stereo not given) gave Autofluor counter 5564, RN4220 kill 0.2, BJeLR viability 5.5, ugtP null kill 2.9, Mtb hypoxia inh 0.4, PrP 5UTR inh -35.7 and Mtb hypoxia inh growth 0.4.
`Cc1[nH]n(-c2ccccc2)c(=O)c1/C=N/N(C)c1ccccc1` gave Autofluor counter 2603, BJeLR viability 2.6 and PrP 5UTR inh -12.4.
For C#CCOc1ccc(Cl)cc1/C=N/O the results were Autofluor counter 11059, BJeLR viability -1.7 and PrP 5UTR inh -12.5.
For O=C(NCCN1C(=O)C2C3C=CC(C3)C2C1=O)Nc1cccnc1 (stereo not given) the results were Autofluor counter 5608, RN4220 kill -1.7, BJeLR viability 6.0, ugtP null kill -3.5 and PrP 5UTR inh 10.7.
For CC(C)/C=N/NC(=O)c1ccc(Cl)cc1 the results were Autofluor counter 2831, BJeLR viability 1.1 and PrP 5UTR inh -25.1.
Screening CCCC(NCC(=O)Nc1ccccc1C(=O)NC1CC1)c1ccccc1 (stereo not given) returned Autofluor counter 5399, RN4220 kill 0.9, ugtP null kill 4.8, Mtb hypoxia inh -0.2, PrP 5UTR inh -21.3 and Mtb hypoxia inh growth -4.9.
`COc1ccc(-n2c(Cc3cccn3C)nnc2SCC(=O)Nc2cccc(Cl)c2)cc1` gave Autofluor counter 6177, RN4220 kill 9.7, BJeLR viability -2.0, ugtP null kill 3.7 and PrP 5UTR inh -16.3.
For Oc1ccccc1/C=N/[n+]1ccccc1 the results were Autofluor counter 3364, BJeLR viability 0.4 and PrP 5UTR inh -32.8.
`CCCCOc1ccc(NC(=O)CN2CCN(Cc3ccccc3)CC2)cc1` gave Autofluor counter 3843, RN4220 kill 0.1, BJeLR viability 6.9, ugtP null kill 9.3, Mtb hypoxia inh -2.3, PrP 5UTR inh -6.3 and Mtb hypoxia inh growth 2.5.
For O=C(COC(=O)c1n[nH]c(=O)c2ccccc12)Nc1cccc(S(=O)(=O)N2CCOCC2)c1 the results were Autofluor counter 7128, RN4220 kill 2.3, ugtP null kill 5.8, Mtb hypoxia inh 1.6, PrP 5UTR inh -18.2 and Mtb hypoxia inh growth 1.6.
Screening O=C(CN1CCCCCCC1)NN=Cc1ccc([N+](=O)[O-])o1 returned RN4220 kill 1.2, ugtP null kill 10.7, Mtb hypoxia inh -0.1 and Mtb hypoxia inh growth 9.5.
For Cc1nnc(SCc2cc(=O)[nH]c(N=C(N)Nc3ccccc3Sc3ccccc3)n2)s1 the results were RN4220 kill 5.9, ugtP null kill -4.5, Mtb hypoxia inh 4.8 and Mtb hypoxia inh growth 4.9.
`Cc1ccc(Cn2nnc3c(=O)[nH]c(C4CCN(S(=O)(=O)c5ccccc5F)CC4)nc32)cc1` gave Autofluor counter 3868, RN4220 kill -2.5, BJeLR viability -12.1, ugtP null kill -6.7, Mtb hypoxia inh 2.3, PrP 5UTR inh -19.2 and Mtb hypoxia inh growth 15.1.
`Cc1ccc(NC(=O)c2ccccc2NC(=O)Cc2ccccc2)cc1` gave Autofluor counter 2538, RN4220 kill 7.5, BJeLR viability -1.9, ugtP null kill 9.0, Mtb hypoxia inh 4.8, PrP 5UTR inh -56.2 and Mtb hypoxia inh growth 3.6.
Screening O=C(N/C(=C/c1cccnc1)C(=O)N1CCOCC1)c1ccco1 returned Autofluor counter 2099, RN4220 kill 5.4, BJeLR viability 0.9, ugtP null kill 2.8, Mtb hypoxia inh 10.6, PrP 5UTR inh -3.0 and Mtb hypoxia inh growth 6.5.
Screening CCC(OC(=O)C(C)N1C(=O)C(=O)c2ccccc21)C(=O)Nc1ccccc1OC (stereo not given) returned Autofluor counter 4885, RN4220 kill 21.1, BJeLR viability -7.7, ugtP null kill -7.2, Mtb hypoxia inh 17.3, PrP 5UTR inh -18.1 and Mtb hypoxia inh growth 9.6.
Cc1ccc2oc(C(=O)N3CCC(O)(c4cccc(C(F)(F)F)c4)CC3)c(C)c2c1 was read as Autofluor counter 4302, RN4220 kill -5.1, BJeLR viability -6.4, ugtP null kill -10.6, Mtb hypoxia inh 0.9, PrP 5UTR inh -19.2 and Mtb hypoxia inh growth -9.9.
For CC(=O)C(C(C)=O)c1cc(NS(=O)(=O)c2ccccc2)ccc1NS(=O)(=O)c1ccccc1 the results were Autofluor counter 6203, RN4220 kill 1.2, BJeLR viability -3.5, ugtP null kill 0.3, Mtb hypoxia inh -11.9, PrP 5UTR inh -25.3 and Mtb hypoxia inh growth -11.8.
